D2 ag = agonists of human D2 dopamine receptor (beta-arrestin). P14416. AID 624465. DiscoveRx PathHunter D2 beta-arrestin, luminescence, 90 min; 100% = 57 uM dopamine signal. actives 0.084% (n = 360,000). activation, % (concentration not given with the values); in the data active = activation above about 40%; inconclusive = about 15% to 40%; inactive = below about 15%; further: compound concentration not given in the record; the text of the record calls up to 30% inactive
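Agonist mode: compounds alone added to overnight-plated D2 PathHunter cells for 90 min at 37 C, with 57 uM final dopamine (EC100) defining full response. Beta-arrestin recruitment detected by chemiluminescent reagent, read after 1 h at ambient temperature.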
Six1-Eya2 inh = inhibitors of human Six1/Eya2 interaction; actives 0.56% (n = 360,000); AlphaScreen GST-Six1/His-Eya2 binding, biochemical; active compounds read low; control for the full effect not named in the record; activity change, % (no concentration beside the values); AID 651725; Q15475+O00167; in the data active = activity change below about -65%; inconclusive = about -30% to -65%; inactive = above about -30%; further: on the % scale 0 is the no-effect control and ±100 the full control effect
Target sequence (O00167 whole entry, looked up): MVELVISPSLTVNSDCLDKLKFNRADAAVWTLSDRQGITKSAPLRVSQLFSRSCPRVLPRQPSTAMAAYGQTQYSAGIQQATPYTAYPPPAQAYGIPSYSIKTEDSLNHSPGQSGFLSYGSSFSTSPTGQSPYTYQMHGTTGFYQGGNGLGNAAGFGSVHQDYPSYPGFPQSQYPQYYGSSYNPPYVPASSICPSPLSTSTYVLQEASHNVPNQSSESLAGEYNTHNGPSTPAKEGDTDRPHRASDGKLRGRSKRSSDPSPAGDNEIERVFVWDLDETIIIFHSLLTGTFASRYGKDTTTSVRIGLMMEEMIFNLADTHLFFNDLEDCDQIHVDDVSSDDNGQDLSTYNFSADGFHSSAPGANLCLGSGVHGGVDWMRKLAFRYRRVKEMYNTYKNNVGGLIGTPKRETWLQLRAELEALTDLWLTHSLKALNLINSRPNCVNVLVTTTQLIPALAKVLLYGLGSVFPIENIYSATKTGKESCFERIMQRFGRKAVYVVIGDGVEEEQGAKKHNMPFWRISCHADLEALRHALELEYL
Target sequence (Q15475 whole entry, looked up): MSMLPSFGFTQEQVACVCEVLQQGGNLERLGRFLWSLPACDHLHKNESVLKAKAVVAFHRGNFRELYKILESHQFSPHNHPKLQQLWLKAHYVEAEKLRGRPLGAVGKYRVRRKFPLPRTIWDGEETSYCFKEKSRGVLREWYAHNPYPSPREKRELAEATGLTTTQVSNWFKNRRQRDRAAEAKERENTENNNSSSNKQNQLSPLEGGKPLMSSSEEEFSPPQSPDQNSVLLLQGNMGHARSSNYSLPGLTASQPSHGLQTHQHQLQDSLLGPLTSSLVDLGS
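Six1/Eya2 binding was read as AlphaScreen signal after compounds were pinned into GST-Six1 plus His-tagged Eya2 (5X stock 250/500 nM) in pH 8.0 Tris/NaCl/TCEP buffer, beads added, then incubated 1 h, 37 C, dark.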
TRPML1 agonist = agonists of human TRPML1 channel; TRPML1-expressing cells, Ca2+ dye fluorescence, FDSS; host cell line not named in the record; reference of the full effect not given here; Q9GZU1; actives 0.12% (n = 410,000); activation, % (concentration not given with the values); in the data active = activation above about 50%; inconclusive = about 30% to 50%; inactive = below about 30%; further: 0% is about no effect; the text of the record puts the active cut at 80%
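Cells: TRPML1-DL, 1X Tet inducer, ~16 h at 37 degrees C/5% CO2. Dye: ABD Ca8 no-wash + quencher, 45-90 min RT. Read: 10 s baseline, compound add, 110 s agonist phase; 54-4 EC80 (4uM final), 110 s antagonist phase.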
CtBP-E1A blk = blocks the CtBP interaction with E1A | actives 0.49% (n = 340,000) | AlphaScreen GST-E1A/His-CtBP binding, 1536-well; active compounds read low; control for the full effect not named in the record | activity change, % (concentration not given with the values) | AID 651724; in the data active means activity change below about -65%; inconclusive means about -30% to -65%; inactive means above about -30%; further: on the % scale 0 is the no-effect control and ±100 the full control effect
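Homogeneous bead-based format: GST-tagged E1A captured on glutathione donor beads, His-tagged CtBP on nickel acceptor beads; compounds precede bead addition by 2 h at 37 °C.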
D2 PAM = potentiates the human D2 dopamine receptor allosterically. actives 0.23% (n = 360,000). AID 624464. DiscoveRx D2 beta-arrestin cells, luminescence, 90 min; 100% = 57 uM dopamine signal. P14416. potentiation, % (no concentration beside the values); active = potentiation of 50% or more; inconclusive = 30% to 50%; inactive = 30% or less;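 further: compound concentration not given in the record; tested on top of an EC20 dose of dopamine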
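D2 cells co-treated with compound plus 50 nM dopamine (EC20) for 90 min at 37 deg C to detect potentiation. Beta-arrestin recruitment was read as enzyme-fragment luminescence after 1 h at ambient temperature. Full response was set by 57 uM dopamine.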
PINK1 expr mod = changes PINK1 expression; PINK1 immunofluorescence, high-content cytometry, 24 h; Potency, µM (top dose mostly 76.6 µM), without a hit: at the highest dose activation (PINK1 increase), hits mostly activators; actives 0.2% (n = 410,000); AID 624263; active = well fitted activation curve with a large enough effect; inconclusive = small, poorly fitted or top-dose-only effect; inactive = flat fitted curve, though single readings scatter; cell line not stated here;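 further: potency means the concentration at half of the fitted maximal effect; % of control where 0% means no effect; nearly all actives have a fitted effect of over 65% in size; a mitochondrial uncoupler was the plate control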
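Readout is PINK1 immunofluorescence, quantified alongside mitochondrial, cell and nuclear markers by laser-scanning microplate cytometry. Cells from a stable line were exposed to compound titrations (5 concentrations) for 24 hours, with CCCP controls.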
Starred values were filed as active, the others as inactive; ? = inconclusive; . = no result given; & = joins results of further samples; [ ] = dose if it differs, or a comment.

Value order: D2 ag, CtBP-E1A blk, D2 PAM, PINK1 expr mod, Six1-Eya2 inh, TRPML1 agonist
CCCCCCSc1ccc(-c2nc3ccc(Cl)cn3c2NCCCC)cc1OC
    0.3, 22.4, -5.5, 14.3%, 15.2, -0.4
N/C(Cc1ccc([N+](=O)[O-])cc1)=N\OC(=O)COc1ccccc1Cl
    -0.1, -19.4, 4.0, 0.6%, -4.3, 2.0
O=C1CC(c2ccccc2)c2c(O)cc(O)cc2O1 (stereo not drawn)
    -4.5, 7.1, 3.2, -0.4%, 1.4, -0.1
CC1(C)C(=O)N(c2ccccc2Cl)C(=O)c2ccccc21
    -5.3, 9.8, -1.4, 16.7%, 2.5, -0.2
Cc1ccc(S(=O)(=O)N2N=C3CCCCC3C2(O)C(F)(F)F)cc1 (stereo not drawn)
    -2.9, -0.7, -3.2, -0.4%, -6.8, -1.0
COC(C/C=C/[C@@H](O)[C@H](C)OCc1ccccc1)OC
    -2.8, 1.3, -1.0, 1.3%, 3.8, 1.2
CC(C)C[C@H]1CNC(=S)N1C[C@H]1CCCN1C[C@H](Cc1ccccc1)N1C[C@H](Cc2ccc(O)cc2)N(CC2CCCCC2)C1=S
    -2.9, -14.7, -3.4, 10.6%, -18.0, -0.2
CC(=O)Nc1cccc(NC(=O)c2ccc(C)c([N+](=O)[O-])c2)c1
    -1.1, -1.5, -13.5, -1.2%, -3.4, 2.0
CC(O)CNc1ccc([N+](=O)[O-])cc1S(=O)(=O)N1CCOCC1 (stereo not drawn)
    -2.0, 0.0, -3.7, -1.6%, 38.6, 0.0
Cc1ccc(C(=O)CN(CCCC(N)=O)S(=O)(=O)c2ccc([N+](=O)[O-])cc2)cc1
    6.3, ., 4.6, 1.1%, 1.7, -0.1
Cc1cc(C)n2nc(SCc3cccc(S(=O)(=O)N(C)C)c3)nc2n1
    -0.9, 9.9, -3.7, 1.9%, -10.6, -1.2
Cc1cc(C(=O)OCC(=O)NCc2cccs2)c2ccccc2n1
    4.1, -9.3, 8.7, 0.8%, 7.4, 2.3
CC(OC(=O)CCc1nc2ccccc2c(=O)[nH]1)C(=O)c1ccc(C(C)(C)C)cc1 (stereo not drawn)
    -0.7, 4.3, -23.6, -0.4%, -2.6, 2.7
CC1(C)CC(=O)C2=C(C1)OC(N)=C(C#N)C2c1ccccc1OC(=O)N1CCOCC1 (stereo not drawn)
    0.7, 4.2, 2.1, 1.0%[38.3 µM], 4.2, 6.3
Cc1ccc(C(C)C)c(OCCNC(=O)c2cncc(Br)c2)c1
    3.4, 2.4, -11.4, 3.2%, 11.9, 2.5
O=S(=O)(c1ccc(Br)cc1Cl)N1CCCN(c2ccc(C(F)(F)F)cn2)CC1
    -0.7, 21.8, 9.3, 4.9%, 5.8, 1.5
Cc1sc2nc3n(c(=O)c2c1C)CCCCC3
    -1.6, -3.3, -12.5, 0.0%, -1.5, 0.8
CC(=O)C(Cc1ccccc1)(Cc1ccccc1)C(C)=O
    0.6, 2.2, -2.6, 0.8%, 20.5, 0.6
Cc1ccc(NC(=O)C2C3C=CC4(O3)C2C(=O)N(CCCN2CCCCC2)C4C(=O)NC2CCCCC2)cc1C (stereo not drawn)
    -2.4, 0.0, -9.6, -0.8%, -2.1, 0.8
Cc1noc(C)c1S(=O)(=O)N(CC(=O)NCCc1ccccc1)c1ccc(C(C)C)cc1
    -1.9, ., -15.9, 2.6%&3.0%, 5.0, 3.9&2.8
CCN(CC)Cc1c(-c2ccccc2)[nH]c2ccc(C)cc2c1=O
    -4.0, 2.2, -11.6, ?, 7.0, -0.7
COc1cccc(/C=N/NC(=O)CSc2nnc(C)n2-c2ccccc2)c1O
    -3.6, ?, -8.5, -2.7%, ?, -0.9
COc1ccc(N2CC(C(=O)NC3CC(C)(C)NC(C)(C)C3)CC2=O)cc1 (stereo not drawn)
    -2.1, -0.2, -4.7, 0.0%, -1.5, 0.4
CC(C)(C)c1ccc(OCc2ccc(C(=O)N/N=C3\CC4CC=CC34)cc2)cc1 (stereo not drawn)
    -0.3, 16.2, 0.1, 4.5%, -2.5, -0.7
NC(=O)CNc1ncc(C(F)(F)F)cc1Cl
    0.6, 4.7, -6.4, 1.2%, 5.0, 0.6
Cc1ccc(C(=O)N2CCN(c3ccc(NC(=O)COc4ccccc4C)cc3)CC2)cc1
    -4.8, -11.4, 7.3, -2.4%, -24.5, 1.4
CCOC(=O)c1nnn(CC(=O)N2N=C(c3cc(C)ccc3C)CC2c2ccc(OC)cc2)c1C(=O)OCC (stereo not drawn)
    -2.0, -18.1, -12.9, -0.7%, -12.3, 1.3
CC1CN(C(=S)c2cccc([N+](=O)[O-])c2)CC(C)O1 (stereo not drawn)
    -6.6, 2.6, -5.4, 1.1%, 14.1, -0.2
Cn1cccc1C(=O)OCc1csc(-c2ccccc2)n1
    -2.4, -8.1, -12.9, -0.2%, -19.8, -0.5
CC(NC(=O)c1ccccc1Cl)C(=O)OCc1cn2cc(Cl)ccc2n1 (stereo not drawn)
    -0.8, ., 0.9, 2.5%, -0.6, -1.4
CCOC(=O)C1CCN(Cc2ccc(O)c(OC)c2)CC1
    ?, 3.9, -4.2, ., -0.8, -0.5
CC(NC(=O)CCNC(=O)c1ccco1)c1ccccc1 (stereo not drawn)
    -1.7, 8.5, -1.2, 1.9%, 12.5, -0.9
CCc1ccccc1NC(=O)CCS(=O)(=O)c1ccc(Br)cc1
    0.2, 7.4, -9.5, 0.3%, 0.3, 0.4
Cc1cc(C)c(-c2csc(NC(=O)C3=COCCO3)n2)cc1C
    -1.5, 4.5, -18.0, 0.6%, -17.6, 0.5
O=C(NCc1ccc(F)cc1)c1cnc2sccn2c1=O
    -3.7, 5.8, 0.4, 1.2%, -8.1, -0.9
COc1ccc(C(=O)CSc2nccc(=O)[nH]2)cc1
    -2.0, 1.6, -18.6, 0.2%, -5.0, 0.6
CC1CCN(Cc2nnc(-c3cccc(Br)c3)o2)CC1
    0.1, 4.6, -13.6, 2.0%, 1.5, -1.0
CC(C)(C)OC(=O)N[C@@H](COCc1ccccc1)C(=O)N[C@@H](CO)[C@H](O)[C@@H]1C[C@@H]1C(=O)NC1CCCCC1
    2.2, -1.8, -1.9, 0.0%, -5.9, -0.7
CC(C)(C)OC(=O)NCCc1nnc(SCc2ccc(Cl)cc2)o1
    -2.8, 7.0, -3.2, 0.2%, 4.4, 0.7
CN(C)N(Cc1ccccc1)C(=O)C(O)(c1ccccc1)c1ccccc1
    1.5, ., 0.3, 1.5%, 5.3, 1.2
O=S(=O)(c1ccc(F)c(F)c1)N1CCN(Cc2ccc3c(c2)OCO3)CC1
    -1.2, -1.7, 4.8, 1.3%, -3.8, 1.1
COc1ccc(CN(CC2CCCO2)S(=O)(=O)c2ccc(C(=O)O)cc2)cc1OC (stereo not drawn)
    -1.1, 2.5, -3.4, 7.5%[38.3 µM], 4.1, -0.2
COc1ccc(-c2ccc3oc(-c4ccsc4)cc3c2)cc1
    1.0, 6.8, 5.9, -0.2%, 4.5, 0.1
COc1cccc(/C=C/C(=O)OCC(=O)NC2CCCCCC2)c1
    -1.8, 0.5, -7.9, 0.3%, 2.2, 0.1
O=C(Nc1ccccc1C(=O)N1CCCCC1)c1ccco1
    ?, 5.4, -1.6, 1.0%, 1.0, 0.4
CNC(=O)c1[nH]cnc1C(=O)NCC(=O)OCc1ccccc1
    0.0, 4.0, 2.8, 1.3%, -1.3, 0.0
COc1cc(-c2nc(-c3cccc(C(F)(F)F)c3)no2)cc(OC)c1OC
    1.5, 6.0, -9.0, 9.4%, 13.5, 2.2
COc1cc(C(=O)N2CCN(S(=O)(=O)c3cccc(F)c3)CC2)ccc1OCC(=O)N1CCOCC1
    -7.2, 5.5, 5.3, 2.5%, -2.3, -0.7
CCC(C)NC(=O)CN1C(=O)c2cccc3cccc1c23 (stereo not drawn)
    -4.2, 8.1, -1.5, 0.2%, 2.3, -0.3
CCCCOc1ccccc1P(=O)(O)CP(=O)(c1ccccc1)c1ccccc1
    -1.7, -0.7, 5.4, 14.5%, 9.1, 2.0

Following part
Value order: D2 ag, CtBP-E1A blk, D2 PAM, PINK1 expr mod, Six1-Eya2 inh, TRPML1 agonist
C=CCSc1nnc(CCCCCN2C(=O)c3cccc4cccc(c34)C2=O)o1
    -0.2, -4.6, 3.3, 0.9%, 4.7, 5.0
COc1ccccc1N=C1SC(C(=O)Nc2cccc(Cl)c2Cl)C(N)=C1C(N)=O (stereo not drawn)
    1.4, -0.8, 3.3, 4.3%, -9.1, 2.0
COc1ccc(C(=O)N2CCN(CCNC(=O)C(=O)Nc3ccc(F)cc3)CC2)cc1
    -1.9, 4.2, -9.6, 0.3%, 0.6, 0.2
O=C(Nc1cccc(C(=O)O)c1)/C(=C/c1ccc([N+](=O)[O-])cc1)NC(=O)c1ccccc1
    1.2, ., 3.6, 0.6%, 1.5, 2.2
Nc1nc(-c2ccccc2)c(C(=O)Nc2ccccc2)s1
    -2.6, ., 8.4, -1.3%, -7.0, 1.0
O=C(Nc1ccc(Cl)cc1)C1C2C=CC3(O2)C1C(=O)N(CCN1CCCCC1)C3C(=O)NC1CCCCC1 (stereo not drawn)
    3.0, 2.3, -7.0, 3.9%, 9.8, 0.4
CCc1nc2ccc(C(=O)NCc3ccc(OC)cc3)cn2c1N(C)CCC(C)C
    7.0, -4.1, 2.7, 2.9%, -0.6, -0.6
CCOC(=O)CNC(=O)CN1CCC(c2nc3ccccc3[nH]2)CC1
    -2.7, ., -7.0, 1.0%, 6.0, 0.9
CN(C(=O)c1ccc(Cl)c([N+](=O)[O-])c1)C1(C)CCS(=O)(=O)C1 (stereo not drawn)
    1.8, 4.4, -5.3, 17.5%, -0.9, -0.6
COc1ccccc1OCC(=O)OCC(=O)NCCN1C(=O)CSC1=O
    3.0, -7.2, 3.6, ., -0.4, -0.2
CCCC(=O)OCC(=O)Nc1ccc([N+](=O)[O-])cc1C#N
    -4.1, -1.3, 2.5, 2.6%, 3.0, 0.1
COc1ccccc1OCC(=O)N1CCC2(CC1)CC(=O)c1ccccc1O2
    -5.8, -0.6, -10.0, 1.9%, 6.3, -0.1
Cc1ccc(NC(=O)c2cc3c(s2)CCC3)cc1S(=O)(=O)N1CCOCC1
    -1.7, 3.3, -20.6, ., -3.1, -0.4

From PubChem BioAssay

Compounds as they come, and some 1.3% of all compounds hit somewhere here.
